# TRPV1 potentiator: human TRPV1 potentiation | Q8NER1 | TRPV1-expressing cells, Fluo-8 calcium influx, capsaicin EC20 potentiation; host cell line not named in the record; control for the full effect not named in the record | potentiation, % at 8.33 µM | 320,000 compounds, 0.02% hits; active means potentiation above 80%; inconclusive means 30% to 80%; inactive means below 30%; also: 0% is about no effect
#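 Cells expressing TRPV1 were dye-loaded with Fluo-8 and read kinetically: 10 s baseline, 3 min after compound (agonist portion), then 2 min after EC20 capsaicin (allosteric enhancer portion). Calcium-bound dye fluorescence at 480/520 nm.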
# Menin MLL FP FL: inhibitors of human menin-MLL interaction, wild-type MLL peptide; FP activity change, % at 61.4 µM; Fluorescence polarization, fluorescein-MLL peptide displacement from menin; 290,000 tested, under 10 active; AID 1766; inconclusive = falling polarisation curve, or a change in total fluorescence; inactive = total fluorescence flat and polarisation flat or rising; no compound was filed as active; the % refers to the polarisation; negative = inhibition;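 also: % of control where 0% means no effect; inhibitors lower the polarisation; unlabelled MLL peptide was the positive control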
# PINK1 modulator: PINK1 expression modulation; PINK1 immunofluorescence, high-content cytometry, 24 h; Potency, µM (series often up to 76.6 µM), inactives show at the top dose activation (PINK1 increase), actives largely listed as activators; 410,000 compounds, 0.2% hits; AID 624263; active = well fitted activation curve with a large enough effect; inconclusive = small, poorly fitted or top-dose-only effect; inactive = flat fitted curve, though single readings scatter; cell line not stated here;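 also: potency is read from the fitted curve at half-maximal effect; % of control where 0% means no effect; nearly all actives have a fitted effect of over 65% in size; a mitochondrial uncoupler was the plate control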
#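 Cells are seeded, rested 12 hours, then given compound at five concentrations or DMSO for 24 hours. After fixation, blocking and antibody staining, PINK1 amount and mitochondrial localization are scored; CCCP serves as control.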
# TRPML1 agonist: activates the human TRPML1 channel. Q9GZU1. TRPML1-expressing cells, Ca2+ dye fluorescence, FDSS; host cell line not named in the record; reference of the full effect not given here. activation, % (no concentration beside the values). 410,000 compounds, 0.12% hits; in the data active = activation above about 50%; inconclusive = about 30% to 50%; inactive = below about 30%; also: 0% is about no effect; the text of the record puts the active cut at 80%
# Target sequence (Q9GZU1 whole entry, looked up): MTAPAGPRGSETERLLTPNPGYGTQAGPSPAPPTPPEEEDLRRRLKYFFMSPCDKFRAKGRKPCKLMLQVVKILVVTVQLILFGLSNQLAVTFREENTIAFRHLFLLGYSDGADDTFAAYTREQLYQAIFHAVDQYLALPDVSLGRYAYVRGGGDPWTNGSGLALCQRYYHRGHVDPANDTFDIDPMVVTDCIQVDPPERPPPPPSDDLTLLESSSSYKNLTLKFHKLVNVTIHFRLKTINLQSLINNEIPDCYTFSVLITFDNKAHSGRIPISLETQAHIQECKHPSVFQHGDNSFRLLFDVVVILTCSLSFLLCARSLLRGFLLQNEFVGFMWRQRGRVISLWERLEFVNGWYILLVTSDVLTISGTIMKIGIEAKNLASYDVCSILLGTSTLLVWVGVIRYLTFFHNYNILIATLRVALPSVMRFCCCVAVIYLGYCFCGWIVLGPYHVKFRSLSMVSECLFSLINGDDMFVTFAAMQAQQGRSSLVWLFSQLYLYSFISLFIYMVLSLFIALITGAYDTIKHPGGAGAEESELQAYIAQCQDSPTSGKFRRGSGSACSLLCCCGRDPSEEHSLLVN
#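 Agonist activity was taken from a 110 s kinetic Ca2+ dye read on the FDSS after pinning compounds onto TRPML1-DL cells. The cells were seeded at 1,500/well with Tet inducer, incubated about 16 h, then dye-loaded at room temperature.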
# ClpP mod: qHTS Assay for Activators of ClpP; ATP-dependent Clp protease proteolytic subunit (Bacillus subtilis (strain 168)), P80244; purified B. subtilis ClpP, FRET peptide cleavage, 20 min; Potency, µM (highest dose often 57.5 µM), for the others: top-dose activity change, negative = active; 340,000 compounds, 1.9% hits; AID 651965, 2013; active = well fitted falling curve with a large enough effect; inconclusive = small, poorly fitted or top-dose-only effect; inactive = no such curve, though single readings can be large or run the other way; also: potency is read from the fitted curve at half-maximal effect; the source files actives as falling curves though it sought activators and does not explain the sign; nearly all actives have a fitted effect of over 65% in size; many hits overshoot -100%
# Target sequence (P80244 whole entry, looked up): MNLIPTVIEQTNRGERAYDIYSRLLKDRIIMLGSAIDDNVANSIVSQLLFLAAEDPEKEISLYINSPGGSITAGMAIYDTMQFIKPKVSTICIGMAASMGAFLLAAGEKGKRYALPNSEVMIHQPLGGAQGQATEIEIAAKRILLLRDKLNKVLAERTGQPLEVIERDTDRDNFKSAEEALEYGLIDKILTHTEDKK
#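 Purified B. subtilis ClpP, 10 microg/mL final in Tris/HCl pH8 with KCl, BSA, glycerol and Tween-20, cleaved an Abz/nitrotyrosine-quenched decapeptide. Fluorescence (ex 320, em 430) was read at 0 and 20 min at room temperature. Delta was normalized to 5.8 microM ADEP and DMSO/no-enzyme controls.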
# TRPML1 blocker: blocks the human TRPML1 channel. 390,000 compounds, 0.02% hits. activity change, negative = inhibition, % (no concentration beside the values). AID 624415. TRPML1-inducible cells, Ca2+ dye fluorescence, FDSS; stronger effect = lower value; inhibition of EC80 agonist-evoked calcium signal; in the data active means activity change below about -50%; inconclusive means about -30% to -50%; inactive means above about -30%;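 also: stimulus is agonist 54-4 at its EC80 concentration; % is scaled to controls: 0 for no effect and ±100 for the full control effect; compound concentration not given in the record; the text of the record puts the active cut at -80%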
#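 Calcium fluorescence in TRPML1-DL cells induced overnight with Tet: a 110 s read after compound pin addition, then a 110 s antagonist read after challenge with 54-4 at 4 uM final (EC80).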
# Sfp inh: Sfp phosphopantetheinyl transferase inhibition | Q9F4F7 | Biochemical Sfp PPTase activity, qHTS | Potency, µM, inactives show max response, negative = inhibition, most hits filed as inhibitors | 310,000 compounds, 3.5% hits | AID 1490; active = well fitted inhibition curve with a large enough effect; inconclusive = small, poorly fitted or top-dose-only effect, or another doubt; inactive = no such curve, though single readings can be large or run the other way;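 also: the enzyme is Sfp with the accession as filed and its product quenches rhodamine fluorescence; potency is read from the fitted curve at half-maximal effect; 0% = enzyme reaction without inhibitor and -100% = no enzyme wells; top concentration of the series not given in the record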
#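 After 15 min at room temperature with compound, 15 nM Sfp received 5 uM rhodamine-CoA plus 12.5 uM BHQ-2-ybbR (50 mM Hepes pH 7.6, 10 mM MgCl2). Rate came from the fluorescence difference over 30 min, ex 525/em 598 nm.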
# An asterisk follows results filed as active; ? = inconclusive; / = no result given; & = joins results of further samples; [ ] = dose if it differs, or a comment.
mol	TRPV1 potentiator	Menin MLL FP FL	PINK1 modulator	TRPML1 agonist	ClpP mod	TRPML1 blocker	Sfp inh
Cc1cc(NC(=O)CSc2nc3c(sc4ccccc43)c(=O)n2CCCN2CCOCC2)n[nH]1	9	0.1	10%[38.3 µM]	3.5	-11%	5	22%
CNC(=O)CN1C(=O)c2cccnc2Sc2ccccc21	/	/	-1.6%	1.6	-3.1%	?	/
CCCc1cc(CNC(=O)C2CCC(=O)N(Cc3ccccc3OC)C2)on1 (configuration not stated)	2	0.9	0.4%	0.6	0.2%	42	20%
Clc1ccc(Cl)c(OCCCCN2CCNCC2)c1	-3	-4.6	0.4%	0.0	/	4	-6%
CCN(CC)c1ccc(C2=NNC(=O)CC2C)cc1[N+](=O)[O-] (configuration not stated)	23	0.9	-7.6%[38.3 µM]	0.7	-0.8%	5	8%
CS(=O)c1ccccc1-c1nc(-c2ccc(Cl)cc2)no1 (configuration not stated)	-3	2.6	0.0%	2.7	/	10	7%
Cc1ccc(S(=O)(=O)N2CCOCC2)cc1NC(=O)COC(=O)c1ccc(Cl)s1	/	/	-0.9%	0.2	-0.2%	-6	/
COc1ccc(NC(=O)COC(=O)c2ccc(S(=O)(=O)N3CCCCC3)cc2)c(OC)c1	/	/	0.2%	-0.6	6.5%	-1	/
COc1cc(-c2noc(C3CC(=O)N(c4cc(C)ccc4C)C3)n2)cc(OC)c1OC (configuration not stated)	/	/	2.3%	0.9	0.0%	2	/
CCOC(=O)Cc1csc(/N=C/c2c(O)n(-c3ccccc3C(F)(F)F)c(=O)c3ccccc23)n1	-3	?	0.9%	?	3.6%	-21	-1%
FC(F)(F)c1cccc(OCC2CNC(=S)O2)c1 (configuration not stated)	-11	6.3	1.3%	0.3	/	19	12%
O=C1NC[C@H](CCCCN2C[C@H](Cc3ccc(O)cc3)N(CCc3ccc(O)cc3)C(=O)C2=O)N(CC2CCCCC2)C1=O	/	/	2.2%	-0.7	0.9%	/	/
Cc1cc(C)n(-c2nc3ccccc3nc2N2CCC(C)CC2)n1	-31	2.5	8.5%[38.3 µM]	1.7	-1.9%	-12	11%
CCn1nc(C(=O)NNC(=O)C(Cc2ccccc2)NC(N)=O)c2ccccc2c1=O (configuration not stated)	/	/	1.7%	0.8	/	3	/
Cc1ccc(C(=O)N2c3nc(-c4ccco4)nn3C3(CCCCC3)[C@@H]3CCCC[C@@H]32)cc1	/	/	1.8%	2.1	-1.4%	0	/
COc1ccc(CC(=O)NC(C)c2ccc3ccccc3c2)cc1 (configuration not stated)	3	-3.0	-1.4%	1.6	-0.7%	1	11%
O=C(CSc1nc2scc(-c3ccco3)c2c(=O)n1-c1ccccc1)N1CCOCC1	-22	-2.8	0.0%	0.4&1.0	-0.5%	24&-9	?
COc1ccc(C(=O)Nn2cnnc2)cc1	-4	-1.6	3.9%	0.3	-0.9%	-6	-1%
Cc1ccccc1NC(=O)NCc1ccccn1	/	/	-0.2%	0.7	/	-15	/
Cc1cc(C)cc(-n2nnnc2-c2cn(C)nc2C(F)(F)F)c1	-4	0.5	-0.6%	-0.1	-2.4%	10	27%
CCC1CCCCN1CCCNC(=O)c1ccc(CS(=O)(=O)c2ccccc2OC)o1 (configuration not stated)	-18	8.0	0.0%	-0.1	-0.3%	-9	19%
N#CCCCCn1c(-c2cncs2)nc2ccccc21	-15	-0.7	1.5%	-0.5	-11%	-16	15%
C=CCN1C(=O)C2C(C(=O)NCc3ccccc3)C3(C)C=CC2(O3)C1C(=O)NC(C)(C)C (configuration not stated)	5	2.1	2.0%	-0.2	0.0%	12	8%
C/C(=N\OCC(=O)Nn1c(=O)[nH]c2ccccc2c1=O)c1ccccc1	-17	1.2	2.0%	-0.2	?	0	-9%
Cc1noc(C)c1CSCC(=O)N(C)CC(=O)Nc1ccccc1Br	20	/	-0.8%	-0.7	-1.8%	-15	/
Cc1nc2scc(C)n2c(=O)c1S(=O)(=O)Nc1cccc(O)c1	/	/	1.6%	-0.4	-2.2%	-9	/
CCOc1ccc(C(=O)CSCCC(=O)O)cc1	-10	2.4	-0.8%	0.5	/	13	25µM*
CCOC(=O)N1CCN(c2c(N3CCN(c4ccc(OC)cc4)CC3)c(=O)c2=O)CC1	4	-2.1	1.7%	-1.3	0.8%	-10	7%
Cc1cccc(C2c3[nH]c4ccccc4c3CCN2C(=O)CN2CCOC2=O)n1 (configuration not stated)	-3	1.0	-2.0%	-0.5	/	6	2%
O=C(Cc1ccc(Cl)cc1)c1c[nH]c(C(=O)NCCCn2ccnc2)c1	13	-0.6	2.5%	-0.6	1.5%	-5	-1%
COc1ccc(OCCCC(=O)ON=C(N)c2ccccc2Cl)cc1	3	/	1.3%	3.6	0.1%	-11	/
Cc1cccc(NC(=S)NCCc2c[nH]c3ccccc23)c1	5	1.1	0.1%	0.5	1.1%	4	20%
C=CCN(C)CCCNC(=O)/C=N/O	11	-3.3	/	/	/	/	13%
O=C(/C=C/c1cnc2ccccc2n1)NC1CCCCCC1	0	9.1	2.9%	-0.3	-1.7%	10	0%
CCn1c(SCCC(C)C)nnc1-c1c[nH]c2ccccc12	-7	2.3	0.8%	0.8	-2.2%	13	9%
Cc1nn(CC(=O)NCCc2ccc(Cl)cc2)c(=O)c2cccn12	5	0.2	-0.3%	0.5	-2.1%	17	18%
COc1ccc(CNC(=O)CN(Cc2ccccc2)C(=O)CCC(=O)Nc2ccccn2)cc1	-7	2.2	-1.5%	1.8	/	-14	23%
COc1cc(NC(=O)Cn2ccsc2=N)cc(OC)c1	?	8.0	-0.6%	1.0	/	-6	-14%
CC(C(=O)Nc1nccs1)N1C(=O)c2ccccc2S1(=O)=O (configuration not stated)	22	/	0.9%	1.9	0.7%	9	/
OCC(O)C1OC(c2ccco2)OC(CO)C1O (configuration not stated)	/	/	6.7%	-0.5	/	-11	/
O=C(c1nc2ccccn2c1CN1CCCC(OCc2ccccc2)C1)N1CCCC1 (configuration not stated)	5	-0.3	5.7%	-0.7	/	-8	-9%
O=C1COc2ccc(C(=O)COC(=O)c3ccco3)cc2N1	-1	2.4	3.1%	/	-6.9%	/	5%
COc1ccc(CCN2CC(C(=O)NCCc3ccc(C(F)(F)F)cc3)CCC2=O)cc1 (configuration not stated)	-14	/	3.0%	0.8	2.3%	-2	16%
C[C@H](CO)N1C[C@H](C)[C@@H](CN(C)C(=O)Nc2ccc3c(c2)OCO3)Oc2ccc(NC(=O)C3CCCCC3)cc2C1=O	/	/	0.2%	-0.6	-0.3%	4	/
Cc1ccc(Sc2ccc(C(=O)NC(C)C)cc2[N+](=O)[O-])cc1	-8	5.0	11%	2.5	9.3%	10	20%
C=CCNc1nc2c(c(=O)[nH]c(=O)n2C)n1CCCCC	-9	-6.4	-0.2%	-0.8	-0.5%	-4	16%
OC(CNCc1cccs1)c1ccccc1 (configuration not stated)	5	0.4	-0.4%	-0.7	-0.6%	-3	11%
O=C1CN(C(=O)COc2ccccc2Cl)c2ccccc2N1	6	/	0.3%	1.0	0.6%	8	/
O=C(c1ccc2c(=O)n(Cc3ccc(Cl)cc3)c(=S)[nH]c2c1)N1CCCC1	-8	-2.1	6.6%	0.1	-0.5%	61	11%
COc1ccc(/C=N/OCC(=O)NC(c2ccccc2)c2ccccc2)cc1OC	-3	0.6	1.4%	6.4	-3.6%	27	-2%
O=C1CS/C(=N\c2ccccn2)N1C1CCCCC1	-6	-0.2	3.1%	-0.2	1.2%	40	24%
Fc1ccccc1CSc1ncnc2c1ncn2C1CCCO1 (configuration not stated)	/	/	-1.0%	2.8	/	-5	/
CCN(CC)c1ccc(NC(=O)CN2CCN(c3nc(C)cc(C)n3)CC2)cc1	-1	-1.1	-1.4%	0.9	?	13	7%
Fc1ccc(/C=N/Nc2nnnn2-c2ccccc2)cc1	-10	-4.8	3.1%	-0.1	/	7	8%
O=C(c1cccc(C(F)(F)F)c1)C1CCCN(C(=O)CN2CCOC2=O)C1 (configuration not stated)	16	/	0.3%	0.1	-7.9%	14	23%
O=S(=O)(Nc1ccc(Br)cc1)N1CCOCC1	-2	1.2	-0.7%	0.5	-1.5%	-13	13%
O=C(CN(Cc1ccco1)C(=O)CNS(=O)(=O)c1ccc(F)cc1)NCc1ccccc1	5	/	2.2%	1.2	/	1	2%
O=C(NCc1cccnc1)C1C2C=CC(C2)C1C(=O)Nc1cccc(C(F)(F)F)c1 (configuration not stated)	/	/	3.4%	-0.8	0.7%	-6	/
O=C(Nc1nc(-c2ccc(F)c(F)c2)cs1)c1cc([N+](=O)[O-])ccc1N1CCOCC1	-4	1.2	7.9%	-0.4	-0.7%	27	10%
COC(=O)c1c(N)nc(C)n1-c1ccc(OC)cc1	-2	0.8	0.0%	-0.5	-1.0%	-8	16%

# Continuation.
mol	TRPV1 potentiator	Menin MLL FP FL	PINK1 modulator	TRPML1 agonist	ClpP mod	TRPML1 blocker	Sfp inh
CCOc1ccc(NC(=O)CN(C)C(=O)CC2CCCCC2)cc1OCC	11	/	2.9%	2.6	-0.6%	13	/
C/C(=C\c1ccccc1)C(=O)Nc1nc2ccc([N+](=O)[O-])cc2s1	-12	12	-0.7%	0.0	-2.5%	-7	-2%
O=C(C[C@H]1C/C=C\C[C@@H](Cc2ccc(F)cc2)C(=O)O[C@H](c2ccccc2)CNC1=O)N[C@@H](CO)Cc1ccccc1	/	/	-0.6%	0.5	-0.4%	11	/
NCCNC(=O)Cc1cccc(NC(=O)Cc2ccc(Nc3ncnc4c3ncn4[C@@H]3O[C@H](CO)[C@@H](O)[C@H]3O)cc2)c1	1	-4.9	1.0%	0.2	-0.8%	16	-3%
Cc1ccccc1NC(=O)CSCCO	5	-0.6	-2.4%	-0.3	-3.9%	-7	10%
NCc1cccc(CNc2ccc([N+](=O)[O-])cc2C(N)=O)c1	4	/	-1.3%	0.0	-2.4%	-6	/

# Rows were taken by chance. Share with any hit: about 4.4%.
